# Screens deposited in PubChem BioAssay by Southern Research Institute.
# V. cholerae motility – Vibrio cholerae motility inhibitors, OD read-out (AID 588778). Vibrio cholerae motility, OD read-out; higher % means a stronger effect; test concentration not given here; primary cut-off and reference of the scale not given here; strong numbers were not always called active. inhibition, %; hits with a dose series show IC50 in µg/mL. 10,000 tested, under 10 active; in the data active means confirmed in a dose series
# V. cholerae motility viability – second read-out of V. cholerae motility, no call of its own (marks repeat the call); inhibition, %; measured here: bacterial viability at 10 ug/mL;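 higher means fewer living bacteria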
# Numbers without * were called inactive. Not all compounds are listed, so the mix of outcomes need not match the whole.
SMILES,V. cholerae motility,V. cholerae motility viability
Cc1cccc(OC(C)C(=O)N2CCC(Cc3ccccc3)CC2)c1C (configuration not stated),-7%,-1
CCSc1ccccc1C(=O)N1CCN(c2cccc(C(F)(F)F)c2)CC1,1%,1
COc1c(C)cc(Br)cc1C(=O)O,7%,5
O=C(NCCCN=C1NS(=O)(=O)c2ccccc21)c1ccco1,6%,5
OCC1CCCN1C(=S)Nc1ccccc1 (configuration not stated),-4%,-3
C=CCC(CC=C)(NC(=O)CCC(=O)OC)c1ccccc1,12%,23
C1=CCC(CN2CCN(Cc3cccnc3)CC2)CC1 (configuration not stated),8%,12
COc1cc(Cl)c(C)cc1NC(=O)CSc1nnc(-c2ccncc2)n1Cc1ccco1,-6%,-6
O=[N+]([O-])c1ccc(Sc2cccc3cccnc23)c2cccnc12,9%,-1
O=C(O)C1C2C=CC(C2)C1C(=O)Nc1ccc(Br)c(Cl)c1 (configuration not stated),1%,-3
Cc1cnn(C(=O)c2ccc(Cl)s2)c1,2%,-5
C1CN=C(SCCCCSC2=NCCCN2)NC1,-7%,-6
COc1cc(C(C)=O)ccc1OCC(O)Cn1nc(C)c(C(C)=O)c1C (configuration not stated),13%,4
COC(=O)C1(C(F)(F)F)C2C=CC(C2)N1S(=O)(=O)c1ccccc1 (configuration not stated),2%,2
Cc1cc(C)nc(NS(=O)(=O)c2ccc(NC(=O)N3c4ccccc4Sc4ccccc43)cc2)n1,-1%,-6
Nc1nn(S(=O)(=O)c2ccccc2)cc1-c1ccc(F)cc1,16%,-2
O=C1c2ccccc2C(=O)N1Cc1c(Cl)cccc1Cl,-7%,1
NC(=O)c1ccccc1NC(=O)C1c2ccccc2Oc2ccccc21,5%,-3
O=C(CCCOc1ccc(Cl)cc1Cl)N1CCN(Cc2ccc3c(c2)OCO3)CC1,15%,5
COc1ccc(NC(=S)NNC(=O)c2ccc(COc3ccc4ccccc4c3)o2)c(OC)c1,3%,16
COc1cc(C=O)ccc1OCCSc1ccccc1,-4%,-3
CCCCC(=O)NC(c1ccc(N(CC)CC)cc1)c1ccc2cccnc2c1O (configuration not stated),-9%,-5
CSc1ccccc1NC(=O)c1cc(-c2ccc3c(c2)OCO3)nc2ccccc12,-15%,-3
Nn1c(COc2ccc(Cl)c(Cl)c2)n[nH]c1=S,2%,5
COc1cc2c(cc1NC(=O)Nc1ccc(F)cc1)oc1ccccc12,12%,21
CC(=O)Oc1ccc(C(=O)O/N=C(\N)c2cccnc2)cc1,10%,-4
CCN(C(=O)Cc1ccc(F)cc1)C1CCCCC1,22%,-4
COc1ccc2cc(Br)ccc2c1CC(=O)NN1CCN(C)CC1,4%,-1
O=C(COc1ccc(Br)cc1Cl)NC(=S)Nc1ccccn1,10%,2
CCOc1ccc(CCNC(=O)Nc2ccccc2[N+](=O)[O-])cc1OCC,14%,21
Clc1ccc(-c2cn3cccnc3n2)cc1Cl,4%,-5
Cc1ccccc1C(=O)N1CCN(c2nc(N3CCCC3)nc(N3CCCC3)n2)CC1,0%,0
COC(=O)c1c(C)oc2cc3c(C(=O)OC)c(C)oc3cc12,1%,2
CC1=NN(c2ccccc2)C(=O)C12C1C=CC(C1)C2(C(F)(F)F)C(F)(F)F (configuration not stated),10%,33
Cc1ccnc(NC(=O)c2ncn[nH]2)c1,0%,4
O=C(NC(=S)N1CCCCC1c1cccnc1)c1ccco1 (configuration not stated),-9%,0
C=CCc1ccc(OCCCOc2ncnc3ccccc23)c(OC)c1,11%,34
COc1ccc(Cl)cc1NC(=O)c1cc(OC)c(OC)cc1OC,-2%,-1
COc1ccc2oc(=O)c(-c3nc4ccccc4c(=O)[nH]3)cc2c1,12%,19
CCSc1nc2ccccc2n1C(=O)/C=C/c1ccc(F)cc1,-5%,-4

# One compound at a time, from the list above.
# CC1=NN(c2ccccc2)C(=O)C12C1C=CC(C1)C2(C(F)(F)F)C(F)(F)F (configuration not stated) across the screens: V. cholerae motility = 10%; V. cholerae motility viability = 33
# O=C(COc1ccc(Br)cc1Cl)NC(=S)Nc1ccccn1 across the screens: V. cholerae motility = 10%; V. cholerae motility viability = 2

# Additional entries follow.
SMILES,V. cholerae motility,V. cholerae motility viability
O=C(O)CC12CC3CC(CC(O)(C3)C1)C2,-16%,-11
O=C(c1cccs1)N(c1ccc(Cl)cc1)C1C=CS(=O)(=O)C1 (configuration not stated),17%,6
CCOC(=O)c1oc2c(CN3CCCCC3C)c(O)ccc2c(=O)c1-c1ccc(OC)c(OC)c1 (configuration not stated),-1%,-1
COc1ccc2[nH]c(=O)c(CN(C(=O)c3cncc(Br)c3)c3cccc(C)c3)cc2c1,1%,22
N#C/C(=C/c1ccc([N+](=O)[O-])o1)c1ccc(C#N)cc1,97%,99
COC(=O)C1=C(C)N(CCC2=CCCCC2)C(=O)C1,2%,-2
NC(=S)NNC(=O)c1ccccc1OCc1ccccc1,-14%,-11
CC1CC(C)(C)Nc2ccc(OC(=O)c3ccco3)cc21 (configuration not stated),-7%,-5
Cc1ccc(S(=O)(=O)NNC(=O)c2ccc3ccccc3n2)cc1,2%,9
Cc1ccc(C)c(C(=O)NC(C)(C)C)c1,-3%,-2
Cc1ccc(N2C(=O)NC(c3ccccc3)(C(F)(F)F)C2=O)nc1 (configuration not stated),-1%,-3
O=C(CCc1ccccc1)Nc1ccc([N+](=O)[O-])c2ccccc12,-24%,-9
CCOC(=O)c1ccc(NC(=O)Nc2ccc(OC)c(OC)c2)cc1,7%,-4
CCS(=O)(=O)N1CCC(N2CCC(C)CC2)CC1,6%,2
N#C/C(=C\c1cn[nH]c1-c1ccc(Cl)cc1)S(=O)(=O)c1ccccc1,-1%,1
Cc1cc(NC(=O)C(=O)NCc2ccco2)ccc1Br,4%,-2
c1ccc2c(Cn3nnc4ccccc43)cccc2c1,25%,8
S=C(c1ccc(OCCOc2ccccc2Cl)cc1)N1CCOCC1,2%,-2
C=CCOc1c(C)c(O)cc(C)c1C(=O)OC,5%,-4
Cc1cc(C)c2nc(-c3ccncc3)cc(C(=O)NCCCn3ccnc3)c2c1,17%,9
CCCCOC(=O)Nc1nc(CC(=O)OCC)cs1,-8%,-1
Cc1cc(C(C)(C)C)cc(C)c1CSc1nnc(N)s1,3%,-6
CN(C)C12CC3CC(CC(O)(C3)C1)C2,3%,-2
Cc1cccc(C(=O)NCc2n[nH]c(=S)n2-c2ccccc2)c1,-6%,-6
Cc1ccnc(-n2c(C)cc(C=O)c2C)c1,29%,13
CCOC(=O)C1=C(C)NC(=O)CC1c1c(F)cccc1Cl (configuration not stated),6%,19
O=C(Nc1nc(-c2ccccc2)cs1)c1c(O)c2ccccc2[nH]c1=O,-3%,0
CN(C)CCCNC(=S)NC1CC1,-16%,-4
COC(=O)c1sc2cc(NC(=S)NNC(=O)c3ccoc3C)ccc2c1Cl,17%,1
CSc1ccccc1C(=O)Nc1nc(=O)c2ccccc2s1,99%,81
COc1ccc2c(c1)c(=O)oc1cc(OCc3ccc(C(=O)O)o3)ccc12,-3%,-3
O=C(CSC1c2ccccc2Oc2ccccc21)Nc1ccc(C(=O)O)cc1,2%,-4
Cc1cccc(OCC(=O)Nc2ccc3c(c2)nc(CCNC(=O)c2ccco2)n3C)c1,-25%,-14
COc1ccc(C2NC(=O)NC3=C2CCc2ccccc23)cc1[N+](=O)[O-] (configuration not stated),-4%,-2
COc1ccc(/C(N)=N/OC(=O)COc2cc(C)cc(C)c2C)cc1,-18%,-9
O=C(CSc1ccc([N+](=O)[O-])cn1)Nc1ccc2c(c1)OCO2,-7%,-1
CCSc1nc2ccccc2n1Cc1nc(N)nc(N(C)C)n1,-21%,-5
Cc1cc(C(=O)NCCC2=CCCCC2)no1,19%,33
FC(F)(F)c1cccc(-n2c(-c3cccs3)n[nH]c2=S)c1,28%,13
COc1ccc(CCNC(=S)NCCC2=CCCCC2)cc1OC,19%,8
O=C1CCC(=O)N1OCc1ccc(F)cc1,2%,-6
CCCC(=O)N1CCN(c2ccc(NC(=O)COc3ccc(C)c(C)c3)cc2Cl)CC1,11%,5
O=C(CCS(=O)NCc1ccccc1)NCc1ccccc1 (configuration not stated),-24%,-2
O=C(CSCc1ccccc1Br)Nc1cc(C(F)(F)F)ccc1Cl,-4%,-9
c1ccc(SCCCOc2cccc3ccccc23)nc1,-3%,-6
O=C(Nc1ccccc1C(=O)NCCCn1ccnc1)c1ccco1,-16%,-13
O=Cc1ccc(-c2ccc(Cl)cc2F)o1,-15%,3
O=C1CCCN1S(=O)(=O)c1ccccc1,-14%,-8
C=CCOc1ccccc1CNn1c(C)n[nH]c1=S,20%,7
CCOC(=O)c1c(N)sc2c1CCC(C#N)(c1ccccc1)C2 (configuration not stated),-24%,-5
COc1cc(C=O)cc(Br)c1OC(=O)c1ccco1,18%,2
COC(=O)C1=C(C)NC(=O)NC1c1cc(Cl)cc(Br)c1OC (configuration not stated),5%,2
O=C(CCC1CCCCC1)NCc1ccncc1,8%,4
CCN(CC)CC#CCC(C)OCCC#N (configuration not stated),-4%,0
CCOC(=O)c1c(N)n[nH]c1-c1ccccc1,8%,3
O=C(O)CCc1ccc(-c2ccc(F)cc2)n1Cc1ccco1,-6%,-4
O=C1c2ccccc2-c2nc3ncnn3c(-c3ccc(F)cc3)c21,-6%,-4
COc1ccc2c(c1OC)C(=O)N1N=C(c3ccc(F)cc3)CC21 (configuration not stated),20%,2
O=C(CCN1CCC(c2ccccc2)C1)c1cccs1 (configuration not stated),31%,10
Cc1cc(=O)oc2cc(OCc3nnc(-c4ccccc4)o3)ccc12,10%,-4

# (more compounds)
SMILES,V. cholerae motility,V. cholerae motility viability
O=C(Cc1ccc(Cl)cc1)Nc1ccc(CN2CCCCC2)cc1,3%,2
CC(C)(C)OC(=O)NNC(=S)Nc1cccc2ccccc12,4%,-2
C=CCc1cccc(Cl)c1OCCSc1ncccn1,2%,1
O=C(CSc1nnc(-c2ccccc2Cl)o1)NCc1ccccc1,25%,4
O=C(Nc1ccc2c(c1)OCO2)C(=O)N1CCCCC1,6%,-5
CC(=O)CC(=O)c1c(C)cc(C)cc1C,10%,31
CC(C)CN(Cc1c(O)ccc2c1oc(=O)c1ccccc12)CC(C)C,-17%,-3
CCOC(=O)C(C)NC(=O)c1ccccc1NC(=O)c1ccco1 (configuration not stated),7%,-1
Nc1cc(Cc2ccc(O)c(N)c2)ccc1O,-29%,0
NS(=O)(=O)c1ccc(NC(=O)CSC2=NCCS2)cc1,8%,-1
N/C(=N\OC(=O)c1ccccc1I)c1ccncc1,5%,-3
FC(F)(F)c1ccc(-c2noc(/C=C/c3ccccc3)n2)cc1,0%,-3
CCOC(=O)Nc1cc(OC)c(OC)cc1Cc1nccc2cc(OC)c(OC)cc12,-10%,-1
COc1c(F)c(F)c(C(=O)NC(C)C23CC4CC(CC(C4)C2)C3)c(F)c1F (configuration not stated),6%,-5
Cc1ccc(CCNc2ccccc2C)cn1,23%,0
CCN(C(=O)c1cc(C(=O)OC)cc([N+](=O)[O-])c1)c1ccccc1,-4%,-3
CC(C)(C)NC(=O)N1CCc2ccccc2C1,2%,6
COCCNS(=O)(=O)c1ccc(I)cc1,-12%,-9
Oc1ccccc1-c1nc(/C=C/c2cccs2)nn1-c1ccccc1,-14%,-9
CN1CCN(NC(=O)COc2cccc(C(F)(F)F)c2)CC1,19%,6
CCNC(=O)N/C(=N/c1nc(C)cc(C)n1)Nc1cc(OC)c(Cl)cc1OC,7%,35
COc1ccc([N+](=O)[O-])cc1CNCCO,20%,6
Cc1cccc(C(C)(C)C)c1OCCOCCn1ccnc1,9%,-2
CCN1CCCC1CNCc1cccc(OC)c1OCc1ccccc1 (configuration not stated),-6%,-3
CCOc1cc(CNCc2ccccn2)cc(Cl)c1OCC,8%,1
COc1ccc(OC)c(Nc2c3ccccc3nc3ccccc23)c1,90%,31
O=C(O)C1CCCCC1C(=O)Nc1nc(-c2cccs2)cs1 (configuration not stated),-9%,0
Cc1nn(C)c(C)c1NC(=O)CSc1nnc(C(c2ccccc2)c2ccccc2)n1C,5%,31
CCc1c(C)sc(NC(=O)c2sc3ccccc3c2Cl)c1C(=O)N1CCOCC1,-13%,0
COC(=O)CCCCC1SCC(NC(=O)c2ccccc2)C1O (configuration not stated),1%,0
Cc1ccc(NC(=O)c2ccccc2)s1,15%,-4
O=c1[nH]c(C(F)(F)F)nc2c1c(=O)[nH]c1sc(-c3cccs3)cc12,7%,2
O=C(CCN1C(=O)c2cccc3cccc(c23)C1=O)N1CCN(C/C=C/c2ccccc2)CC1,47%,12
Cc1sc(NC(=O)c2cnccn2)c(C(N)=O)c1-c1ccccc1,-9%,0
CCCCC(=O)NC1=C(C(=O)OCC)C2(CCCCC2)Cc2ccccc21,2%,1

# Some of these compounds in order of length of the SMILES, smallest number first:
SMILES,V. cholerae motility,V. cholerae motility viability
CCOc1cc(CNCc2ccccn2)cc(Cl)c1OCC,8%,1
Cc1cccc(C(C)(C)C)c1OCCOCCn1ccnc1,9%,-2
CCN1CCCC1CNCc1cccc(OC)c1OCc1ccccc1 (configuration not stated),-6%,-3
O=C(O)C1CCCCC1C(=O)Nc1nc(-c2cccs2)cs1 (configuration not stated),-9%,0
Cc1sc(NC(=O)c2cnccn2)c(C(N)=O)c1-c1ccccc1,-9%,0
CCCCC(=O)NC1=C(C(=O)OCC)C2(CCCCC2)Cc2ccccc21,2%,1
O=c1[nH]c(C(F)(F)F)nc2c1c(=O)[nH]c1sc(-c3cccs3)cc12,7%,2
